D2 potentiator = positive allosteric modulators of human D2 dopamine receptor; P14416; DiscoveRx D2 beta-arrestin cells, luminescence, 90 min; 100% = 57 uM dopamine signal; potentiation, % (concentration not given with the values); 360,000 compounds, 0.23% hits; AID 624464; active = potentiation of 50% or more; inconclusive = 30% to 50%; inactive = 30% or less;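 also: tested on top of an EC20 dose of dopamine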
Target sequence (P14416 whole entry, looked up): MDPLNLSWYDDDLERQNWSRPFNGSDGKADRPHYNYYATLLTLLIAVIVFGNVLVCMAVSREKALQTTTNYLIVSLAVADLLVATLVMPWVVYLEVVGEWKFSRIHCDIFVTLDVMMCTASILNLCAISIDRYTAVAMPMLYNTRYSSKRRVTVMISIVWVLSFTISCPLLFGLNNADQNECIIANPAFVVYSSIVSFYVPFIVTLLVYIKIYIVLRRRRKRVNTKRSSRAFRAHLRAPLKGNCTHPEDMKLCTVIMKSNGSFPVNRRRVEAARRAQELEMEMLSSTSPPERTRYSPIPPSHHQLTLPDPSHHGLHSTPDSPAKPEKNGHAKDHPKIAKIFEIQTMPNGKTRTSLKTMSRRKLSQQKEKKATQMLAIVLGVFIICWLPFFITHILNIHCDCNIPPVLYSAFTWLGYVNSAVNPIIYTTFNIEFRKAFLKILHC
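PathHunter D2 cells, attached overnight at 37 deg C, received compound in DMSO plus dopamine at EC20 (50 nM final) for 90 min at 37 deg C. Beta-arrestin recruitment was read as luminescence after 1 h with detection reagent at ambient temperature.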
TRPML1 blocker = inhibitors of human TRPML1 channel. TRPML1-inducible cells, Ca2+ dye fluorescence, FDSS; active compounds read low; inhibition of EC80 agonist-evoked calcium signal. activity change, negative = inhibition, % (concentration not given with the values). 390,000 compounds, 0.02% hits. AID 624415; in the data active means activity change below about -50%; inconclusive means about -30% to -50%; inactive means above about -30%;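 also: stimulus is agonist 54-4 at its EC80 concentration; % is scaled to controls: 0 for no effect and ±100 for the full control effect; the text of the record puts the active cut at -80%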
Target sequence (Q9GZU1 whole entry, looked up): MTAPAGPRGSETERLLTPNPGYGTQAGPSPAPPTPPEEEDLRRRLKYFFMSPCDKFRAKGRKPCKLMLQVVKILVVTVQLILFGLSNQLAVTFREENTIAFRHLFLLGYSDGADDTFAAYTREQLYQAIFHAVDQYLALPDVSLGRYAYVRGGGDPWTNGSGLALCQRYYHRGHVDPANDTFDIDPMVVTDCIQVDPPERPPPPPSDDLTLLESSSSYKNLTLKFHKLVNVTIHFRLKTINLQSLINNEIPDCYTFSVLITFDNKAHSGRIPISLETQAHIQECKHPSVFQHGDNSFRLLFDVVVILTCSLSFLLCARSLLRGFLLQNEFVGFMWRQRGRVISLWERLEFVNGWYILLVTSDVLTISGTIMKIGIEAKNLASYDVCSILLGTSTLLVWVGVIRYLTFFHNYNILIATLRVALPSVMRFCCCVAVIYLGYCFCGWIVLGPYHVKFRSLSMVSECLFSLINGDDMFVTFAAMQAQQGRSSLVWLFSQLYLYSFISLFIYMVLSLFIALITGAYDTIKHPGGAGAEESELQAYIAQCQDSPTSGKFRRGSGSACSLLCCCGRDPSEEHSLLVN
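Calcium fluorescence in TRPML1-DL cells induced overnight with Tet: a 110 s read after compound pin addition, then a 110 s antagonist read after challenge with 54-4 at 4 uM final (EC80).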
D2 agonist = human D2 receptor agonism in beta-arrestin assay. P14416. DiscoveRx PathHunter D2 beta-arrestin, luminescence, 90 min; 100% = 57 uM dopamine signal. activation, % (no concentration beside the values). 360,000 compounds, 0.084% hits. AID 624465; in the data active = activation above about 40%; inconclusive = about 15% to 40%; inactive = below about 15%; also: compound concentration not given in the record; the text of the record calls up to 30% inactive
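DiscoveRx PathHunter D2 beta-arrestin cells (2,100/well) attached overnight, then compound-stimulated 90 min at 37 C in HBSS/10 mM HEPES/0.1% Tween-20 buffer; beta-galactosidase complementation read by luminescence after 1 h at ambient temperature. Dopamine 57 uM final (EC100) as control.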
Six1-Eya2 inh = inhibitors of human Six1/Eya2 interaction | AlphaScreen GST-Six1/His-Eya2 binding, biochemical; active compounds read low; control for the full effect not named in the record | activity change, % (test concentration not listed) | 360,000 compounds, 0.56% hits; in the data active = activity change below about -65%; inconclusive = about -30% to -65%; inactive = above about -30%; also: % is scaled to controls: 0 for no effect and ±100 for the full control effect
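Compounds are tested against tagged Six1 and Eya2 proteins bridged by glutathione donor and nickel acceptor beads; after a one-hour incubation at 37 °C without light, AlphaScreen emission is recorded.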
PINK1 modulator = changes PINK1 expression | PINK1 immunofluorescence, high-content cytometry, 24 h | Potency, µM (highest dose often 76.6 µM), for the others: at the top dose activation (PINK1 increase), actives largely listed as activators | 410,000 compounds, 0.2% hits; active = well fitted activation curve with a large enough effect; inconclusive = small, poorly fitted or top-dose-only effect; inactive = flat fitted curve, though single readings scatter; cell line not stated here;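 also: potency is read from the fitted curve at half-maximal effect; % of control where 0% means no effect; nearly all actives have a fitted effect of over 65% in size; a mitochondrial uncoupler was the plate control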
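Stable cell line, 250 cells/well, 12 h attachment; compounds pinned at 5 concentrations, 24 h; CCCP control. Fixed with nuclear dye, primary antibodies 12 h at 10 degrees C, secondary plus cell stain; laser-scanning cytometer read.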
TRPML1 ag = activates the human TRPML1 channel; Q9GZU1; TRPML1-expressing cells, Ca2+ dye fluorescence, FDSS; host cell line not named in the record; reference of the full effect not given here; activation, % (no concentration beside the values); 410,000 compounds, 0.12% hits; AID 624414; in the data active = activation above about 50%; inconclusive = about 30% to 50%; inactive = below about 30%; also: 0% is about no effect; the text of the record puts the active cut at 80%
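Agonist activity was taken from a 110 s kinetic Ca2+ dye read on the FDSS after pinning compounds onto TRPML1-DL cells. The cells were seeded at 1,500/well with Tet inducer, incubated about 16 h, then dye-loaded at room temperature.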
Starred values were filed as active, the others as inactive; ? = inconclusive; . = not tested or not shown; [ ] = another dose, or the depositor's remark.

mol	D2 potentiator	TRPML1 blocker	D2 agonist	Six1-Eya2 inh	PINK1 modulator	TRPML1 ag
O=S(=O)(NC1CCSc2ccccc21)c1ccccc1 (stereo not given)	-2	25	-0.6	7	0.9%	2.4
CC1=C(C(=O)OC(C)C)C(c2c(O)ccc3ccccc23)NC(=O)N1 (stereo not given)	-6	1	-5.3	-14	-0.5%	-0.9
Cc1ccc(-c2noc(CSc3nnc(C)n3-c3ccc(C)c(C)c3)n2)cc1	.	19	.	.	0.8%	0.1
COc1ccc(/C=C2\SC(N)=NC2=O)cc1	-1	-16	4.2	-6	-1.2%	0.1
Cc1cccc(C)c1OCc1cc(C(=O)N2CCN(c3ccc(F)cc3)CC2)no1	-6	49	-1.0	-13	2.3%	1.1
COc1cc(C)c(NC(=O)c2cccc(S(=O)(=O)N3CCCC3)c2)cc1OC	-7	-2	-4.4	1	-0.2%	0.0
O=C1C2CC=CCC2C(=O)N1Nc1ccccc1 (stereo not given)	-4	2	-2.8	-3	3.0%	0.2
COc1ccc(C(=O)n2c(N)nc3ccccc32)cc1OC	7	-1	-1.7	-10	-1.0%	-0.8
O=C(NCc1ccc(Cl)cc1)NCc1noc2ccccc12	.	-6	.	.	-2.3%	0.5
C=CCN(C(=O)c1ccc2snnc2c1)c1ccccc1	-7	4	-4.0	-4	-1.7%	-0.3
CCOC(=O)c1cc(-c2ccccc2)n(CCC(=O)Nc2ccc(Cl)c(C(F)(F)F)c2)c1C	.	-6	.	.	?	9.7
Cc1noc(C)c1COC(=O)c1ccc2c(c1)OCCO2	-7	15	-1.6	1	0.6%	-0.2
CCC(C)(C)C1CCC2(CC1)NC(=O)N(CC(=O)Nc1nc(-c3ccc(C)cc3)cs1)C2=O (stereo not given)	10	-15	-0.9	5	16%	-0.7
Cc1cc2cc3c(cc2nc1SCC(=O)N1c2ccccc2CC1C)OCO3 (stereo not given)	-7	2	-0.6	4	-1.1%	1.2
Cc1cccn(Cc2c(F)cccc2Cl)c1=O	-1	-3	-6.0	-8	1.8%	-0.2
CC(C)C(NS(=O)(=O)c1ccccc1)C(=O)N1CCCCCC1 (stereo not given)	-2	-10	3.0	-2	0.1%	0.4
C=CCn1c(-c2ccc(Cl)cc2)cnc1SC(C)C(=O)NC(N)=O (stereo not given)	-1	4	-3.5	-8	-0.4%	0.7
NC(=O)c1cc([N+](=O)[O-])ccc1NCc1ccc(N)cc1	-1	12	-1.4	-3	-1.0%	-0.7
C/C(=N/NC(=S)Nc1cccc(C)c1)c1cccc([N+](=O)[O-])c1	-16	2	-11	-10	1.1%	-0.7
CCc1nnc(NC(=O)C2CCCN2C(=O)Nc2ccc(C)cc2)s1 (stereo not given)	-9	11	-7.0	6	-0.9%	0.0
O=c1n(S(=O)(=O)c2cccc3cccnc23)c2ccccc2n1S(=O)(=O)c1cccc2cccnc12	0	2	-0.5	0	3.8%[38.3 µM]	1.1
Cc1ccc(C2c3cccn3CCN2S(=O)(=O)c2ccc([N+](=O)[O-])cc2)cc1 (stereo not given)	.	-8	.	.	3.0%	2.7
O=C(CNC(=O)C1COc2ccccc2O1)Nc1ccc(F)c(F)c1 (stereo not given)	-20	6	0.8	0	1.2%	-0.1
O=C(NCC1CC1)C1(S(=O)(=O)c2ccccc2)CC=CC1	-11	-10	-4.1	5	0.2%	-0.7
Cc1ccc(NC(=O)c2cc(S(=O)(=O)N3CCc4ccccc43)cn2C)cc1	1	28	6.2	-2	8.7%	2.2
O=C(Nc1ccnn1C1CCN(Cc2ccc(O)c(Cl)c2)CC1)C1CCCC1	-9	-10	-2.5	4	-0.7%	-0.4
CC(C)n1c(C(F)(F)F)nc2cc(C(=O)N3CCC(O)CC3)ccc21	-5	-2	-0.9	5	-0.6%	-0.4
N#CCC(=O)NC1CCC(CC2CCC(NC(=O)CC#N)CC2)CC1 (stereo not given)	9	-11	1.8	13	-0.3%	-0.1
CC(=O)Nc1ccc(NC2=CC(=O)CC(C)(C)C2)cc1	5	-12	-1.6	7	4.1%	0.5
COc1ccc(NC(=O)CC2C(=O)N(C)C(=S)N2Cc2ccncc2)cc1 (stereo not given)	2	7	-3.1	4	0.7%	-1.2
O=C(c1cccc(Cl)c1)N1CCC(=O)N([C@H](COCc2ccccc2)Cc2ccccc2)CC1	.	.	.	3	-0.8%	-0.6
CC(CCc1ccccc1)NC(=O)c1nnc(Cc2ccc(Cl)cc2)o1 (stereo not given)	-1	36	1.9	-5	1.9%	1.1
Cc1cc(NC(=O)CCC(=O)N(Cc2ccccc2)C(C(=O)NC2CCCC2)c2ccc(C)o2)no1 (stereo not given)	-4	-2	2.1	0	-0.4%	1.4
Cc1ccccc1-c1nc(CS(=O)CC(=O)N2CCN(c3cc(Cl)ccc3C)CC2)c(C)o1 (stereo not given)	.	23	.	.	2.0%	2.8
COC(=O)C(CC(=O)c1ccccc1)CC(=O)c1ccccc1	-5	-9	-8.9	7	1.9%	0.6
COc1ccc(CC(=O)N2CCC(n3nccc3NC(=O)C3CC3)CC2)cc1	-6	13	-2.9	2	-2.8%	0.3
CCOC(=O)C1=C(N)OC2=C(C(=O)CCC2)C1c1ccccc1OC (stereo not given)	-4	1	-2.6	-3	1.3%	0.2
O=C(CN1CCN(Cc2ccc(F)cc2)CC1)NCc1ccccc1	-1	-15	0.4	3	0.4%	-0.5
CC(C)(C)C(=O)CSc1ncccn1	-7	-9	0.5	2	0.6%	0.6
O=C(NC(=S)NNC(=O)c1ccco1)c1ccc(F)cc1	-22	-11	-0.4	-12	2.1%	0.8
CNC(=O)c1ccc(Nc2nc(-c3ccccc3)nc3ccccc23)cc1	6	-1	7.1	?	-1.4%	1.1
COc1cc(CC(=O)NCc2ccccn2)cc(OC)c1OC	4	18	1.0	6	-0.9%	0.9
Cc1cc(C(=O)OCC(=O)Nc2ccccc2C#N)c(C)o1	4	-7	-4.9	1	-1.2%	0.5
Cc1ccc(N=CNc2ccc(C)cc2C)c(C)c1	-8	15	3.9	-3	2.7%	-0.2
COc1ccc(NS(=O)(=O)c2cccc(C(=O)NCc3cccnc3)c2)cc1	28	6	0.1	-1	0.8%	-1.1

An excerpt from above in order of formula weight, low to high:
mol	D2 potentiator	TRPML1 blocker	D2 agonist	Six1-Eya2 inh	PINK1 modulator	TRPML1 ag
COc1cc(CC(=O)NCc2ccccn2)cc(OC)c1OC	4	18	1.0	6	-0.9%	0.9
CNC(=O)c1ccc(Nc2nc(-c3ccccc3)nc3ccccc23)cc1	6	-1	7.1	?	-1.4%	1.1
Cc1ccccc1-c1nc(CS(=O)CC(=O)N2CCN(c3cc(Cl)ccc3C)CC2)c(C)o1 (stereo not given)	.	23	.	.	2.0%	2.8

Later entries.
mol	D2 potentiator	TRPML1 blocker	D2 agonist	Six1-Eya2 inh	PINK1 modulator	TRPML1 ag
CC(C)C(NC(=O)c1ccco1)C(=O)OCC(=O)Nc1ccc(C(N)=O)cc1 (stereo not given)	6	-4	-7.1	3	-0.1%	-0.2
COc1ccccc1-n1c(-c2cc(-c3ccc(F)cc3)n[nH]2)n[nH]c1=S	-12	-13	5.5	-10	-1.2%	-0.1
CC(=O)c1ccc(Nc2nc(-c3sc(C)nc3C)cs2)cc1	-6	1	8.7	-10	14%	1.5
C=C(C)Cn1c(=O)c2c(nc3n2CCN3c2ccc(F)cc2)n(C)c1=O	.	12	.	.	1.5%	-0.3
Cc1cc(C)c(C)c(C(=O)C2OC(=O)C(C)(C)C(=O)C2(C)C)c1C (stereo not given)	-21	42	-3.9	3	0.1%	2.2
CCOC(=O)CSc1nnc(C)n1N	-15	-16	-3.6	12	-1.2%	0.5
CCOC(=O)c1c(C)nc2sc3c(=O)n(-c4ccc(C(C)=O)cc4)nnc3c2c1-c1ccc(OC)cc1	7	24	-1.1	0	-1.1%	3.2
O=C(c1cc(-c2ccco2)nc2ccccc12)N(Cc1nnc(-c2ccc(Cl)cc2)o1)C1CC1	12	3	-4.1	-19	-6.3%	1.5
CCC(=O)Nc1nonc1-c1nc2ccccc2n1Cc1cccc2ccccc12	-20	5	-4.7	-2	3.8%	0.1
O=C(O)CCn1c(-c2ccccc2)cc2c1CCCC2=O	-1	21	-5.2	-3	0.5%	-0.4
O=C(c1ccc(Br)cc1)c1cc([N+](=O)[O-])ccc1N1CCOCC1	-12	19	-4.7	-16	4.0%	1.0
COc1ccc(-c2nnc(CSc3nc4ccccc4c(=O)n3CC(C)C)o2)cc1OC	3	19	-0.8	0	2.0%[38.3 µM]	2.4
O=C(Cc1ccc(Cl)cc1)NC1CCCCCC1	-4	-9	-0.3	16	2.8%	-0.2
Cc1cc(C)cc(NC(=S)NCCSc2ccc(Cl)cc2)c1	-2	-24	-2.9	-3	1.8%	0.7
CC(=O)OC(COc1ccccc1)Cn1cnc2ccccc21 (stereo not given)	4	-5	-0.2	7	-0.9%	0.7

Part of the list above, reduced to D2 potentiator and TRPML1 ag.
SMILES	D2 potentiator	TRPML1 ag
O=C(Nc1ccnn1C1CCN(Cc2ccc(O)c(Cl)c2)CC1)C1CCCC1	-9	-0.4
CC(C)n1c(C(F)(F)F)nc2cc(C(=O)N3CCC(O)CC3)ccc21	-5	-0.4

Later entries:
mol	D2 potentiator	TRPML1 blocker	D2 agonist	Six1-Eya2 inh	PINK1 modulator	TRPML1 ag
Cc1ccc(NC(=O)C2(N3CCC3=O)CCCCC2)cc1	1	0	-4.8	13	0.9%	-0.7
CC(C)c1ccc(NC(=O)N2CCc3nc(NCc4cccc(Oc5ccccc5)c4)ncc3C2)cc1	-6	.	-6.0	-2	-0.1%	-0.6
Cc1nnc(C)c2c(C)n(C(c3ccccc3)c3ccccc3)c(C)c12	-3	-4	2.2	-9	-3.5%[38.3 µM]	0.5
Cc1ccc(NC(=O)c2sc3nc4n(c(=O)c3c2C)CCCCC4)c(Br)c1	.	-11	.	.	3.6%	0.3
O=C(Nc1nnc(C2CC(=O)N(c3ccc(Cl)cc3)C2)s1)c1ccco1 (stereo not given)	.	-5	.	.	-0.9%	-0.1
CCSc1nc(-c2ccccc2)cc(=O)[nH]1	-10	15	-0.9	2	-0.7%	0.2
CCOC(=O)[C@@H]1[C@H]2COc3cc(OC)ccc3[C@@H]2N2C(=O)N(c3cccc(Cl)c3)C(=O)[C@@]12C	-6	27	-3.6	-3	2.3%	0.0
CCNS(=O)(=O)c1ccc(CCC(=O)Nc2ccc3c(c2)OCO3)cc1	-15	12	-1.7	2	-0.3%	-0.9
CN1CCN(S(=O)(=O)c2ccc(Oc3cccc(C(F)(F)F)c3)nc2)CC1	18	29	-2.9	-8	1.8%	-1.4
CC(=O)Nc1ccc(S(=O)(=O)N[C@@H](C)C(=O)OCC(=O)NC2CCCC2)cc1	0	5	-0.2	5	-0.4%	-0.4
O=C(CSc1nncn1-c1ccccc1)Nc1cc(F)ccc1F	-7	5	-2.4	3	2.5%	0.1

High-throughput results (PubChem BioAssay)
